A1 apoptosis 2 – blocks A1, raising caspase activity. MEF A1-2A-BIM cells, caspase-Glo luminescence, 3 h; percent of clofoctol response, DMSO zero. caspase activation, % (no concentration beside the values). 24,000 tested, under 10 active. AID 2465; in the data active = caspase activation above about 5.9%;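 note: wells of about 30 µL received 50 nL stock; the first replicate is given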
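Material: mouse embryonic fibroblasts co-expressing A1 and BIM (A1-2A-BIM), primed for A1 dependence / Quantity: 2500 cells/well / Buffer or medium: RPMI-1640 growth medium with 10% FBS / Doses: 50 nL compound per well, pinned / Schedule: 3 h compound exposure at 37 °C / Signal: Caspase-Glo luminescence (DEVD substrate) / Measure: Caspase-3/7 activation, seen as rise in luminescence signal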
Starred values were filed as active, the others as inactive. This is a subset. The share of hits here may be higher or lower than overall.

SMILES	A1 apoptosis 2
C[C@@H]1CCCCO[C@@H](CN(C)Cc2ccc(Cl)c(Cl)c2)[C@H](C)CN([C@@H](C)CO)C(=O)c2cc(NS(=O)(=O)c3ccc(F)cc3)ccc2O1	0.3
C[C@@H]1CN([C@H](C)CO)C(=O)c2cc(NC(=O)c3ccncc3)ccc2O[C@H]1CN(C)C(=O)Nc1ccc(C(F)(F)F)cc1	-0.7
C[C@@H]1CN([C@@H](C)CO)C(=O)c2cc(NC(=O)C3CC3)ccc2O[C@H]1CN(C)S(=O)(=O)c1ccc(F)cc1	0.2
C[C@@H]1CN([C@H](C)CO)C(=O)c2cccc(NS(=O)(=O)c3cn(C)cn3)c2O[C@@H]1CN(C)Cc1ccc(C(F)(F)F)cc1	-0.7
Cc1noc(C)c1S(=O)(=O)Nc1cccc2c1O[C@H](CN(C)Cc1ccc(Cl)c(Cl)c1)[C@H](C)CN([C@@H](C)CO)C2=O	-0.9
COc1ccc(NC(=O)Nc2cccc3c2O[C@H](CN(C)C(=O)Nc2ccc(F)cc2)[C@@H](C)CN([C@H](C)CO)C3=O)cc1	-0.4
C[C@H](CO)N1C[C@H](C)[C@@H](CN(C)Cc2ccc(C(=O)Nc3ccccc3N)cc2)Oc2c(NC(=O)c3cnccn3)cccc2C1=O	-0.4
CC(=O)NCCCC[C@@H]1NC(=O)[C@H]2C[C@@H](C(=O)NCCCCCCNC(=O)CS)[C@@H](c3ccc(O)cc3)N2C1=O	0.3
COc1ccc(S(=O)(=O)N(C)C[C@@H]2Oc3c(NC(=O)Nc4cccc5ccccc45)cccc3C(=O)N([C@H](C)CO)C[C@@H]2C)cc1	-0.1
C[C@H]1CN([C@@H](C)CO)C(=O)c2cc(NC(=O)Nc3cccc4ccccc34)ccc2O[C@H]1CN(C)Cc1ccc(Cl)c(Cl)c1	-1.3
C[C@@H]1CCCCO[C@H](CN(C)C(=O)Nc2ccccc2)[C@@H](C)CN([C@@H](C)CO)C(=O)c2cc(NC(=O)C3CCCCC3)ccc2O1	-1.4
C[C@@H]1CCCCO[C@H](CN(C)S(=O)(=O)c2cn(C)cn2)[C@@H](C)CN([C@@H](C)CO)C(=O)c2cc(NC(=O)Nc3ccc(F)cc3)ccc2O1	-0.4
C[C@@H]1CN([C@H](C)CO)C(=O)Cc2cc(NC(=O)CCN3CCOCC3)ccc2O[C@H]1CN(C)Cc1ccncc1	1.4
COc1ccc(NC(=O)N(C)C[C@H]2OCCCC[C@@H](C)Oc3ccc(NC(=O)c4ccccc4)cc3C(=O)N([C@H](C)CO)C[C@@H]2C)cc1	-0.8
Cc1ccc(CN(C)C[C@@H]2OCc3cn(nn3)CCCC(=O)N([C@@H](C)CO)C[C@@H]2C)cc1	1.2
C[C@H]1CCCCO[C@H](CN(C)Cc2ccc(C(=O)O)cc2)[C@@H](C)CN([C@@H](C)CO)C(=O)c2cc(NS(=O)(=O)c3ccc(Cl)cc3)ccc2O1	0.3
C[C@@H]1CN([C@@H](C)CO)C(=O)Cc2cc(NC(=O)Nc3ccc(C(F)(F)F)cc3)ccc2O[C@@H]1CN(C)S(C)(=O)=O	1.0
Cc1ccc(S(=O)(=O)Nc2cccc3c2O[C@H](CN(C)S(=O)(=O)c2ccccc2)[C@@H](C)CN([C@@H](C)CO)C3=O)cc1	-0.9
COc1ccc(NC(=O)Nc2ccc3c(c2)C(=O)N([C@@H](C)CO)C[C@H](C)[C@H](CN(C)C(=O)c2ccccc2)OCCCC[C@H](C)O3)cc1	-0.5
C[C@H](CO)N1C[C@H](C)[C@@H](CN(C)S(=O)(=O)c2ccc(F)cc2)Oc2c(NC(=O)NC3CCCCC3)cccc2C1=O	0.4
C[C@@H]1CN([C@H](C)CO)C(=O)c2cccc(NS(=O)(=O)c3cccs3)c2O[C@H]1CN(C)Cc1ccc(-c2ccccc2)cc1	-0.3
CNC[C@@H]1Oc2c(NS(C)(=O)=O)cccc2C(=O)N([C@H](C)CO)C[C@H]1C	-1.4
C[C@H]1CCCCO[C@@H](CN(C)S(=O)(=O)c2ccccc2)[C@@H](C)CN([C@@H](C)CO)C(=O)c2cc(N(C)C)ccc2O1	-0.6
Cc1noc(C)c1S(=O)(=O)N(C)C[C@@H]1OCCCC[C@H](C)Oc2ccc(NC(=O)Nc3ccc(F)cc3)cc2C(=O)N([C@H](C)CO)C[C@@H]1C	0.8
Cc1cc(C(=O)Nc2cccc3c2O[C@@H](CN(C)C(=O)Nc2ccc(C(F)(F)F)cc2)[C@@H](C)CN([C@H](C)CO)C3=O)n(C)n1	-1.7
Cc1noc(C)c1S(=O)(=O)N(C)C[C@H]1OCCCC[C@@H](C)Oc2ccc(NC(=O)Cc3ccccc3)cc2C(=O)N([C@@H](C)CO)C[C@@H]1C	-0.1
C[C@@H]1CN([C@H](C)CO)C(=O)c2cccc(NC(=O)CCCCCC(=O)Nc3ccccc3N)c2O[C@@H]1CN(C)S(=O)(=O)c1ccccc1	-0.3
C[C@H](CO)N1C[C@H](C)[C@H](CN(C)Cc2ccc(C(=O)O)cc2)Oc2ccc(NC(=O)C3CCCCC3)cc2CC1=O	-0.6
C[C@H](CO)N1C[C@H](C)[C@@H](CN(C)CC2CC2)Oc2ccc(NS(=O)(=O)c3cccs3)cc2CC1=O	0.2
C[C@H]1CN([C@@H](C)CO)C(=O)CCCn2cc(nn2)CO[C@H]1CN(C)C(=O)Nc1ccc(C(F)(F)F)cc1	0.7
C[C@@H]1CCCCO[C@@H](CN(C)Cc2ccc3c(c2)OCO3)[C@@H](C)CN([C@@H](C)CO)C(=O)c2cc(NS(=O)(=O)c3cn(C)cn3)ccc2O1	1.8
CCCNc1ncnc2ccc(Br)cc12	-0.4
C[C@H](CO)N1C[C@H](C)[C@H](CN(C)Cc2ccc(C(=O)O)cc2)Oc2c(cccc2N(C)C)C1=O	-0.5
C[C@H](CO)N1C[C@H](C)[C@H](CN(C)C(=O)Nc2ccc(C(F)(F)F)cc2)Oc2ccc(NC(=O)Cc3cn(C)c4ccccc34)cc2CC1=O	0.3
C[C@H](CO)N1C[C@H](C)[C@@H](CN(C)S(=O)(=O)c2ccc(F)cc2)Oc2ccc(NC(=O)C3CC3)cc2CC1=O	-0.5
COc1ccc(S(=O)(=O)N(C)C[C@H]2OCCCC[C@H](C)Oc3ccc(NC(=O)NC(C)C)cc3C(=O)N([C@H](C)CO)C[C@H]2C)cc1	-0.4
C[C@H](CO)N1C[C@H](C)[C@@H](CN(C)C(=O)Nc2cccc3ccccc23)Oc2ccc(NC(=O)Cn3cnnn3)cc2C1=O	-0.7
COc1ccc(S(=O)(=O)N(C)C[C@@H]2Oc3ccc(NC(=O)CCC(F)(F)F)cc3CC(=O)N([C@@H](C)CO)C[C@H]2C)cc1	1.2
Cc1noc(C)c1NC(=O)N(C)C[C@H]1Oc2ccc(NC(=O)c3ccncc3)cc2CC(=O)N([C@H](C)CO)C[C@@H]1C	0.1
C[C@H](CO)N1C[C@H](C)[C@@H](CN(C)Cc2ccc(-c3ccccc3)cc2)Oc2ccc(NC(=O)C3CC3)cc2C1=O	-1.4

4 entries from above, sorted by molecular weight, rising.
SMILES	A1 apoptosis 2
C[C@H](CO)N1C[C@H](C)[C@@H](CN(C)S(=O)(=O)c2ccc(F)cc2)Oc2ccc(NC(=O)C3CC3)cc2CC1=O	-0.5
C[C@H]1CCCCO[C@@H](CN(C)S(=O)(=O)c2ccccc2)[C@@H](C)CN([C@@H](C)CO)C(=O)c2cc(N(C)C)ccc2O1	-0.6
C[C@H](CO)N1C[C@H](C)[C@H](CN(C)C(=O)Nc2ccc(C(F)(F)F)cc2)Oc2ccc(NC(=O)Cc3cn(C)c4ccccc34)cc2CC1=O	0.3
Cc1noc(C)c1S(=O)(=O)N(C)C[C@H]1OCCCC[C@@H](C)Oc2ccc(NC(=O)Cc3ccccc3)cc2C(=O)N([C@@H](C)CO)C[C@@H]1C	-0.1

(more compounds)
SMILES	A1 apoptosis 2
C[C@H]1CCCCO[C@H](CN(C)S(=O)(=O)c2ccccc2)[C@@H](C)CN([C@@H](C)CO)C(=O)c2cc(N(C)C)ccc2O1	0.2
Cc1ccc(S(=O)(=O)Nc2ccc3c(c2)CC(=O)N([C@@H](C)CO)C[C@H](C)[C@H](CN(C)C(=O)Nc2c(C)noc2C)O3)cc1	-1.0
Cc1cc(C(=O)Nc2cccc3c2O[C@H](CN(C)S(=O)(=O)c2cn(C)cn2)[C@H](C)CN([C@@H](C)CO)C3=O)n(C)n1	0.0
C[C@@H]1C=C(C(=O)Nc2ccccc2)O[C@H](OCCCCO)C1	-0.4
C[C@@H]1CN([C@@H](C)CO)C(=O)Cc2cc(NC(=O)C3CCCCC3)ccc2O[C@@H]1CN(C)S(=O)(=O)c1ccc(Cl)cc1	0.7
C[C@@H]1CN([C@@H](C)CO)C(=O)Cc2cc(NS(=O)(=O)c3cccs3)ccc2O[C@@H]1CN(C)S(=O)(=O)c1ccccc1	0.5
C[C@@H]1CN([C@H](C)CO)C(=O)Cc2cc(NC(=O)Nc3ccc(F)cc3)ccc2O[C@@H]1CN(C)CC1CC1	-0.1
CC(C)NC(=O)Nc1ccc2c(c1)CC(=O)N([C@@H](C)CO)C[C@@H](C)[C@H](CN(C)C(=O)NC1CCCCC1)O2	1.1
CC(C)NC(=O)N(C)C[C@@H]1Oc2c(NS(C)(=O)=O)cccc2C(=O)N([C@@H](C)CO)C[C@H]1C	0.7
C[C@H](CO)N1C[C@H](C)[C@H](CN(C)CC2CCCCC2)OCCCC[C@H](C)Oc2ccc(NC(=O)CCCN(C)C)cc2C1=O	-0.1
COc1ccc(S(=O)(=O)Nc2ccc3c(c2)C(=O)N([C@H](C)CO)C[C@H](C)[C@H](CN(C)Cc2ccc4c(c2)OCO4)OCCCC[C@@H](C)O3)cc1	-0.1
C[C@@H]1CN([C@@H](C)CO)C(=O)c2cc(NS(=O)(=O)c3cccs3)ccc2O[C@H]1CN(C)S(=O)(=O)c1ccc(F)cc1	0.5
C[C@H]1CN([C@@H](C)CO)C(=O)Cc2cc(NC(=O)C3CCCCC3)ccc2O[C@@H]1CN(C)S(=O)(=O)c1ccc(F)cc1	0.3
COc1ccc(S(=O)(=O)N(C)C[C@H]2Oc3c(NC(=O)C4CCCCC4)cccc3C(=O)N([C@H](C)CO)C[C@@H]2C)cc1	0.2
C[C@@H]1CN([C@@H](C)CO)C(=O)c2cccc(NS(=O)(=O)c3ccccc3)c2O[C@@H]1CN(C)Cc1ccncc1	-1.5
C[C@H](CO)N1C[C@H](C)[C@H](CN(C)Cc2ccc(Cl)c(Cl)c2)OCCCC[C@H](C)Oc2ccc(NC(=O)C3CCCCC3)cc2C1=O	-1.4
COc1ccc(CN(C)C[C@@H]2Oc3ccc(NC(=O)NC(C)C)cc3CC(=O)N([C@H](C)CO)C[C@H]2C)cc1	1.5
COc1ccc(S(=O)(=O)N(C)C[C@H]2Oc3c(NC(=O)c4ccncc4)cccc3C(=O)N([C@@H](C)CO)C[C@@H]2C)cc1	0.0
C[C@H](CO)N1C[C@H](C)[C@H](CN(C)S(=O)(=O)c2ccccc2)Oc2ccc(N(C)C)cc2CC1=O	-0.3
C[C@@H]1CN([C@H](C)CO)C(=O)c2cc(NC(=O)Cc3cn(C)c4ccccc34)ccc2O[C@@H]1CN(C)Cc1ccc(-c2ccccc2)cc1	0.6

Molecules above with two or more sulfur atoms (five):
SMILES	A1 apoptosis 2
Cc1ccc(S(=O)(=O)Nc2cccc3c2O[C@H](CN(C)S(=O)(=O)c2ccccc2)[C@@H](C)CN([C@@H](C)CO)C3=O)cc1	-0.9
C[C@@H]1CN([C@H](C)CO)C(=O)c2cccc(NS(=O)(=O)c3cccs3)c2O[C@H]1CN(C)Cc1ccc(-c2ccccc2)cc1	-0.3
C[C@H](CO)N1C[C@H](C)[C@@H](CN(C)CC2CC2)Oc2ccc(NS(=O)(=O)c3cccs3)cc2CC1=O	0.2
C[C@@H]1CN([C@@H](C)CO)C(=O)Cc2cc(NS(=O)(=O)c3cccs3)ccc2O[C@@H]1CN(C)S(=O)(=O)c1ccccc1	0.5
C[C@@H]1CN([C@@H](C)CO)C(=O)c2cc(NS(=O)(=O)c3cccs3)ccc2O[C@H]1CN(C)S(=O)(=O)c1ccc(F)cc1	0.5

Next entries:
SMILES	A1 apoptosis 2
C[C@H]1CN([C@@H](C)CO)C(=O)CCCn2nncc2CO[C@@H]1CN(C)C(=O)C1CCCCC1	-0.6
CC(C)=CCC[C@@H](C)C/C=N/NC(=O)c1cccc(C(=O)NO)c1	-0.3
Cc1noc(C)c1S(=O)(=O)Nc1cccc2c1O[C@H](CN(C)S(C)(=O)=O)[C@H](C)CN([C@H](C)CO)C2=O	0.8
CC(C)NC(=O)Nc1ccc2c(c1)C(=O)N([C@H](C)CO)C[C@@H](C)[C@H](CN(C)S(=O)(=O)c1ccc(F)cc1)OCCCC[C@H](C)O2	0.0
C[C@@H]1CCCCO[C@H](CN(C)S(=O)(=O)c2ccccc2)[C@@H](C)CN([C@@H](C)CO)C(=O)c2cc(N(C)C)ccc2O1	0.7
C[C@@H]1CCCCO[C@H](CN(C)C(=O)Nc2ccc(C(F)(F)F)cc2)[C@@H](C)CN([C@H](C)CO)C(=O)c2cc(NS(=O)(=O)c3cn(C)cn3)ccc2O1	-0.1
C#Cc1ccc([C@@H]2C=C(C(=O)Nc3ccccc3)O[C@H](OCc3ccc(CO)cc3)C2)cc1	0.7
C[C@H](CO)N1C[C@H](C)[C@@H](CN(C)S(=O)(=O)c2cccs2)Oc2ccc(NC(=O)NC3CCCCC3)cc2CC1=O	0.1
C[C@H](CO)N1C[C@H](C)[C@@H](CN(C)C(=O)Nc2cccc3ccccc23)OCCCC[C@H](C)Oc2ccc(NS(C)(=O)=O)cc2C1=O	-0.2
C[C@H](CO)N1C[C@H](C)[C@@H](CN(C)C(=O)Nc2ccc(C(F)(F)F)cc2)Oc2ccc(NS(=O)(=O)c3cn(C)cn3)cc2C1=O	0.0
Cc1noc(C)c1NC(=O)N(C)C[C@@H]1Oc2ccc(NC(=O)Nc3ccc(C(F)(F)F)cc3)cc2CC(=O)N([C@H](C)CO)C[C@H]1C	0.0

High-throughput results: PubChem BioAssay, Broad Institute
